LANA-H2A inh: blockers of LANA interaction with H2A/H2B – biochemical, FP readout, HTS, primary screen; Protein LANA1 (Human herpesvirus 8 type P (isolate GK18)), Q9QR71; cell-free LANA-H2A/H2B peptide, fluorescence polarization; inhibition, % (test concentration not listed); 320,000 compounds, 0.6% hits; AID 2629, 2010; in the data active means inhibition mostly above about 10%, no sharp cut-off; inactive means mostly below about 6.7%;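 further: stock transfer was 7.5 nL into about 10 µL; 0% = median of vehicle wells and 100% = median of positive control wells; one replicate is shown; the record names a cut of 25% in any replicate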
Calb FLC: C. albicans growth inhibition with fluconazole, primary screen, CaCi-2 strain, Alamar Blue fluorescence; C. albicans CaCi-2 (fluconazole-resistant clinical isolate) + fluconazole, 48 h; growth inhibition, % (no concentration beside the values); 300,000 compounds, 0.57% hits; AID 1979, 2009;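 active means most replicates above 75%; inconclusive means exactly half above 75%; inactive means most below 75%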;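 further: all wells also contain fluconazole at 8 µg/ml as a sub-toxic cotreatment; 0% = median of DMSO wells and 100% = median of geldanamycin control wells; wells of about 8 µL received 7.5 nL stock; the first replicate is given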
RanGTP-Impb inh: inhibitors of RanGTP-importin-beta interaction, primary screen, biochemical, FRET, CFP-Ran, YFP-importin-beta, homogeneous; Ran GTPase (GTP-bound) - importin-beta complex; cell-free CFP-Ran/YFP-importin-beta FRET ratio; inhibition, % (no concentration beside the values); 300,000 compounds, 1.1% hits;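 active means most replicates above 15%; inconclusive means exactly half above 15%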;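 further: 0% = DMSO wells and 100% = Ran loaded with GDP instead of GTP; wells of about 40 µL received 100 nL stock; the first replicate is given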
T cruzi inh: inhibitors of intracellular T. cruzi growth, primary screen, luminescence, NIH3T3 host cells; T. cruzi beta-gal in NIH3T3, 90 h; 300,000 compounds, 1.4% hits; inhibition, % (concentration not given with the values);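 active means mean inhibition across valid replicates above about 55%, limit read from the data; inconclusive means mean below that limit but half or more replicates reach it; inactive means mean below it, under half of replicates reach it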;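 further: signal also drops with host cell toxicity which is not excluded here; 0% = plate median of DMSO wells and 100% = zero luminescence signal; higher percent means less beta-gal luminescence so fewer parasites; stock transfer was 50 nL into about 50 µL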
Beta cell apopt: inhibitors of cytokine-induced beta cell apoptosis, primary screen, luminescence; AID 435005, 2010; INS-1E cytokine-induced death, ATP luminescence, 48 h; percent of positive-control rescue, neutral wells zero; 300,000 compounds, 0.8% hits; protection from apoptosis, % (concentration not given with the values);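 active means all replicates at 75% or more, or half of them and the mean; inconclusive means half reach 75% but not the mean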;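 further: 0% = cytokine-treated negative control wells and 100% = positive control rescue; higher means more ATP so stronger rescue from cytokine killing; wells of about 40 µL received 100 nL stock; the first replicate is given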
A1 inh: caspase 3/7 activation in MEF A1-2A-BIM cells, primary screen, A1 inhibitor project, cell-based, luminescence, HTS; 330,000 compounds, 0.066% hits; AID 2462, 2010; Caspase-Glo 3/7 luminescence, 3 h; percent of clofoctol response, vehicle zero; caspase activation, % (concentration not given with the values);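 active means over half of replicate activation scores above 10%, or exactly half above 10 with the replicate mean above 10; inconclusive means replicate mean below 10 yet half the replicates above 10; inactive means over half of replicates below 10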;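 further: wells of about 30 µL received 50 nL stock; many hits fall short of the cut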
Beta2AR agonist: beta2AR agonists driving receptor internalization, primary screen, cell-based, FAP fluorogen, flow cytometry; Beta-2 adrenergic receptor (Homo sapiens), P07550; Am2.2-beta2AR cells; reference of the scale not given here; response, % (test concentration not listed); 340,000 compounds, 0.43% hits; AID 504454, 2011;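 active means response above a set limit, near 3 SD of response in nonfluorescent compounds, cut at about 42% in these data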;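 further: stock transfer was 100 nL into about 11 µL; a reference agonist was the positive control; negative values mostly stem from fluorescent compounds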
Target sequence (P07550 whole entry, looked up): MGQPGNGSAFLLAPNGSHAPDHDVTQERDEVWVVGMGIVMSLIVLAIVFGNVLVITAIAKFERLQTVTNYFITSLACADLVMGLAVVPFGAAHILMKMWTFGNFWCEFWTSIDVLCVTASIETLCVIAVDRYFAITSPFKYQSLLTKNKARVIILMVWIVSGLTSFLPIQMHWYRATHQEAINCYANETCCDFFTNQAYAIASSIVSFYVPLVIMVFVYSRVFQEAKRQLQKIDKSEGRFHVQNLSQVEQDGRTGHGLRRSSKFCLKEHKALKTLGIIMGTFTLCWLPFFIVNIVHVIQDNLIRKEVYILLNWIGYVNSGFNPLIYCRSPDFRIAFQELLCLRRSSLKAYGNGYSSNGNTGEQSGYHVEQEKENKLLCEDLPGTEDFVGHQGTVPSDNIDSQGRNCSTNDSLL
UCH37 DUB inh: inhibitors of human UCH37 deubiquitinase, primary screen, biochemical, Ub-AMC cleavage, fluorescence | Ubiquitin carboxyl-terminal hydrolase isozyme L5 (Homo sapiens), Q9Y5K5 | purified proteasome/UCH37 | inhibition, % (no concentration beside the values) | 330,000 compounds, 0.33% hits;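 active means mean of two replicates above 20%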;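 further: 0% = compound-free wells with enzyme and 100% = wells lacking proteasome; stock transfer was 100 nL into about 20 µL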
Target sequence (Q9Y5K5 whole entry, looked up): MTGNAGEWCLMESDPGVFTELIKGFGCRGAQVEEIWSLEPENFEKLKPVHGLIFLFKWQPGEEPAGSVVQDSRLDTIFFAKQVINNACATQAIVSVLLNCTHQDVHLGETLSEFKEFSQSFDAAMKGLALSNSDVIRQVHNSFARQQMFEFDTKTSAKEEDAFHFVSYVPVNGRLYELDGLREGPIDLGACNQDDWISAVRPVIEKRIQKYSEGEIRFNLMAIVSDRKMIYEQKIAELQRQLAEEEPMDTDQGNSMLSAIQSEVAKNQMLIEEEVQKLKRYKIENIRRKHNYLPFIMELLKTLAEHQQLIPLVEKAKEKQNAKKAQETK
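Schedule: 30 min plus 25 min, room temperature / Material: human UCH37 within purified proteasomes / Technique: AMC fluorescence intensity at 355/460 nm / Buffer or medium: pH 7.4 Tris-HCl (50 mM) with ovalbumin, ATP-MgCl2, DTT / Controls: wells without proteasome as full block, compound-free enzyme plus substrate as uninhibited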
* = called active by the depositor; u = inconclusive; x = not tested or not shown.

SMILES	LANA-H2A inh	Calb FLC	RanGTP-Impb inh	T cruzi inh	Beta cell apopt	A1 inh	Beta2AR agonist	UCH37 DUB inh
O=C(CCCOc1ccc(Cl)cc1)N1CCCCCC1	2.9	-10	5.2	1	x	1.1	-4	3.8
NC1=NC(=Nc2ccccc2)c2ccccc21	-2.3	2	2.0	-1	-3	1.8	-3	4.9
COc1ccc(CCNCC(=O)Nc2ccc(C(=O)N3CCCCC3)cc2)cc1	-3.5	-3	-0.4	26	-4	-1.0	7	3.0
O=C(O)C1C2C=CC(C2)C1C(=O)NCc1ccc2c(c1)OCO2 (configuration not stated)	-1.0	-7	0.1	-19	2	-0.3	-3	3.7
O=C(O)C1CC=CCC1C(=O)Nc1ccc2c(c1)OCCO2 (configuration not stated)	-5.0	-3	3.2	-20	5	-3.0	-2	3.8
S=c1[nH]nc(-c2ccncc2)n1Cc1ccccc1	9.8	-10	3.8	-16	-3	0.0	2	2.3
O=C(/C=C/c1ccco1)Nc1ccccc1N1CCOCC1	3.8	13	-0.5	-1	-5	-0.9	-9	10.0
CNC(=S)N(Cc1cc2cc(C)ccc2n2nnnc12)CC(C)(C)CN(C)C	-1.2	4	2.6	-2	-5	0.1	1	1.6
CC(C)NC(=O)C1CCN(S(=O)(=O)c2ccc(N3CCCC3=O)cc2)CC1	3.1	5	4.2	-3	1	-0.5	-11	0.2
O=C(Cc1ccc(Cl)cc1)N1CCN(c2ccc(F)cc2)CC1	1.5	x	1.4	-9	-2	-0.1	4	5.0
COc1cccc(C(=O)CSc2nnc(COc3cccc4cccnc34)o2)c1	2.8	0	3.1	3	11	0.4	0	1.7
COc1cccc(-n2nnc3c(=O)n(Cc4ccc(Cl)cc4)cnc32)c1	-4.9	14	1.6	8	4	0.0	-5	0.1
Nc1ccc2oc(-c3cccs3)nc2c1	6.3	-5	-0.3	-2	-7	-4.1	-4	-17
CCc1cccc(C)c1NC(=O)CN1C(=O)NC(CCc2ccccc2)C1=O (configuration not stated)	2.5	x	x	x	-5	0.4	-6	0.8
CC(NC(=O)CN1C(=O)COc2ccccc21)c1ccccc1 (configuration not stated)	3.9	0	5.1	-11	0	0.8	-7	0.6
Cc1cc(C(F)(F)F)n2nc(-c3cnn(C)c3C(F)(F)F)cc2n1	-1.1	-15	2.0	0	4	-0.3	-16	-5.2
O=C(Cn1nc(C(=O)O)c2ccccc2c1=O)Nc1ccc(F)cc1F	0.8	2	2.0	2	-3	1.1	2	3.5
CCOC(=O)N1CCN(c2c(N3CCc4ccccc4C3)c(=O)c2=O)CC1	1.9	x	x	x	-6	0.1	-10	9.6
Cc1cc(NC(=O)C(C)SCC(=O)Nc2nc3c(F)cc(F)cc3s2)no1 (configuration not stated)	3.9	x	x	x	3	-1.6	7	1.6
COc1ccccc1NC(=O)/C=C/c1ccc2c(c1)OCO2	5.2	4	-6.0	-15	12	-6.6	-1	10
COc1ccc(-c2ccnc3nc(/N=C/N(C)C)nn23)cc1	4.4	-2	3.7	-17	-9	0.4	x	x
CC1CCN(C(=O)CN2C(=O)NC3(CCC(C)CC3)C2=O)CC1 (configuration not stated)	4.6	x	x	x	-10	1.3	3	-0.1
CCOC(=O)CNC(=O)CSc1nc2c(C)cccc2cc1CC	8.9	-8	-0.4	4	-2	-0.4	11	6.0
COC(=O)c1ccc(OCCCCN2CC(C)OC(C)C2)cc1 (configuration not stated)	3.5	-18	5.5	25	-4	-0.2	-1	0.1
Cc1ccc([N+](=O)[O-])cc1NC(=O)C[n+]1ccccc1	-0.1	6	0.0	-8	-8	-0.3	0	1.7
O=C(NCc1ccc2c(c1)OCO2)C1CCCN1S(=O)(=O)c1ccc(Cl)cc1 (configuration not stated)	-1.6	10	-1.3	-3	-6	0.2	-1	2.1
NC(=O)c1ccc(Br)c(S(=O)(=O)N2CCCCC2)c1	8.1	7	u	-3	-2	0.2	-1	2.8
N#Cc1c(-c2ccccc2)cc(C2CC2)nc1N	1.0	-20	8.6	0	x	1.6	5	-73
Cc1ccc(OCC(=O)NCc2ccccc2)c([N+](=O)[O-])n1	1.5	0	0.8	21	-4	0.3	-11	-25
Nc1nc(SCC(=O)N2CCCC2)[nH]c(=O)c1-c1ccccc1	-9.0	0	-0.4	-35	-7	0.5	3	3.7
CCOC(=O)C(CCCCCCP(=O)(c1ccccc1)c1ccccc1)NC(C)=O (configuration not stated)	-0.8	3	-1.7	-1	-1	0.0	-1	3.3
CC(C)Nc1nc(Oc2cccc(Cl)c2Cl)cc(C(F)(F)F)n1	0.2	0	5.1	-7	1	0.7	4	-1.7
CCN1C(=O)[C@H]2[C@@H](c3ccc(-c4ccc5c(c4)OCO5)cc3)N3CCC[C@@]3(C(=O)OC)[C@H]2C1=O	3.3	20	2.6	-11	2	0.8	8	-8.2
CCN(C(=O)Cc1c(C(=O)O)n(CC)c2ccccc12)c1cccc(C(F)(F)F)c1	-0.4	8	0.7	-12	3	-0.8	-2	1.1
COc1ccc2nc3c(nc2c1)CCCC3	0.4	8	-2.2	-4	1	0.2	-2	-253
CCCOc1ccc(C(C)(O)CN2CCOCC2)cc1 (configuration not stated)	0.1	-24	4.4	-8	-6	0.0	3	-0.3
Cc1nc2scc(C)n2c(=O)c1S(=O)(=O)NCCc1ccc(Cl)cc1	2.0	11	-0.4	11	-1	-0.3	-1	-49
Cc1ccc2cc(CN(CC(C)C)S(=O)(=O)c3ccccc3)c(=O)[nH]c2c1	0.6	0	2.4	14	2	-0.4	0	-3.5
COc1ccc(C(=O)NCCN2CCCC2)cc1OC	0.6	-10	0.0	-4	5	0.3	-5	0.3
Cc1cc(OCC(=O)Nc2ccc(N3CCN(C)CC3)cc2)ccc1Cl	-6.5	-7	-4.5	0	4	2.4	5	3.6

Results in Beta cell apopt (three entries from above):
compound | Beta cell apopt
CC1CCN(C(=O)CN2C(=O)NC3(CCC(C)CC3)C2=O)CC1 (configuration not stated) | -10
CCOC(=O)CNC(=O)CSc1nc2c(C)cccc2cc1CC | -2
COC(=O)c1ccc(OCCCCN2CC(C)OC(C)C2)cc1 (configuration not stated) | -4

More entries follow.
SMILES	LANA-H2A inh	Calb FLC	RanGTP-Impb inh	T cruzi inh	Beta cell apopt	A1 inh	Beta2AR agonist	UCH37 DUB inh
O=C(NCCc1ccc(Cl)cc1)C1CCC(=O)N(C2CCCCCC2)C1 (configuration not stated)	1.2	4	-1.4	7	-5	1.7	2	5.7
O=C(N/N=C/c1cc(Cl)ccc1O)c1ccccc1Br	3.2	44	-1.1	18	110*	1.5	8	x
CC1(C)CC(CCNC(=O)c2ccco2)CC(C)(C)N1	-0.3	-6	-0.3	-5	-2	1.3	-3	0.4
CCn1ncc(/C=C/C(=O)c2ccccc2)c1C	-3.0	-20	-1.0	6	-7	-1.8	-1	0.2
CC1(C)CC(=O)C=C(N2CCCC2)C1	-5.6	14	u	1	0	-0.2	11	2.4
COC(=O)c1cc(C(=O)NCCC(C)C)cc([N+](=O)[O-])c1	-0.1	-2	u	5	-3	-0.1	-8	0.8
O=C(NCCC1=CCCCC1)c1ccc(Cl)c(S(=O)(=O)N2CCCCC2)c1	-3.5	-4	4.8	28	14	0.1	12	7.3
COc1ccc(CCNC(=O)CCCc2nnc3n(C)c(=O)c4sccc4n23)cc1OC	2.8	-10	-17	-2	2	0.5	-1	3.5
CCOC(=O)C1CCN(C(=O)CN(Cc2ccccc2)S(C)(=O)=O)CC1	2.8	-12	-4.2	-6	2	0.5	4	1.7
CCOC(=O)Cn1cnc2c(C#N)c3n(c2c1=O)CCCCC3	1.6	5	4.7	-2	-7	0.1	4	1.9
O=C(CCSCCc1ccccn1)Nc1c(F)c(F)c(F)c(F)c1F	0.9	-7	-2.8	-16	7	0.4	4	3.8
Cc1cc(C)c(NC(=O)COc2nncc3ccccc23)c(C)c1	2.8	11	5.3	-36	0	0.4	-1	5.2
COc1c(C)cc(Br)cc1C(=O)O	-0.9	7	-0.5	-19	-1	0.5	4	5.5
Cc1c(C#N)c(O)n(C)c(=O)c1N=Nc1ccc(S(N)(=O)=O)cc1	x	6	1.5	-18	x	x	6	4.1
C=CCN(c1nc(C)cc(OC)n1)S(=O)(=O)c1ccc(C)cc1	4.6	-40	1.9	-9	-4	-0.5	0	0.4
CCC1(c2ccccc2)NC(=O)N(CC(=O)NCc2ccc(OC)cc2)C1=O (configuration not stated)	3.1	-5	-0.4	-8	x	1.1	4	1.9
CCN1C(=S)N[C@@H](CCc2ccccc2)C(C(=O)OC)=C1C	-6.0	1	3.4	-15	-3	1.2	-12	x
COc1ccc(C(=O)NCCc2nnc3ccc(SCC(=O)NCc4ccc(F)cc4)nn23)cc1	-0.5	-6	4.1	-18	4	0.8	-12	2.4
Cc1ccc(C(=O)n2nc(C#N)c(C#N)c2N)cc1	2.1	-1	-0.1	-2	-1	1.7	1	5.8
Cc1ccc(NC(=O)c2ccc(N3CCCC3=O)cc2)cc1S(=O)(=O)N1CCCCC1	0.4	x	x	x	-3	1.6	1	0.9
O=C(NCCCN=C1NS(=O)(=O)c2ccccc21)c1ccco1	-0.6	-6	6.4	-5	-6	u	2	4.7
COC(=O)C(CC(=O)c1cccc(OC)c1)c1ccc(F)cc1 (configuration not stated)	-1.7	-3	-4.7	6	-2	-0.3	-1	-0.8
CCOC(=O)C1(CCOc2ccccc2)CCN(Cc2ccc(CO)o2)CC1	-5.0	-53	8.8	6	-1	0.2	4	3.8
NS(=O)(=O)c1ccc(CCNC(=O)CSc2nc3ccsc3c(=O)n2CC(=O)O)cc1	-4.1	-6	3.5	-8	-17	1.0	-2	3.4
COc1ccccc1/C=N/Nc1nncc2ccccc12	-3.2	-21	0.1	-4	-5	-3.4	9	x
Cc1cc(C(=O)N/N=C/c2cc(Br)ccc2OC(=O)c2ccc(Br)cc2)n[nH]1	0.5	-6	0.2	21	91*	-0.1	x	x
NC(=O)N/N=C/c1c(O)ccc2oc3c(c12)CCCC3	-2.6	62	1.1	-15	-3	-0.6	-1	x
CCOC(=O)C1Nc2ccc(C(F)(F)F)cc2C2c3ccccc3CC12 (configuration not stated)	-5.8	6	7.3	43	-2	0.3	-4	-9.8
c1ccc(Cn2c(SCc3cn4cccnc4n3)nnc2-c2ccco2)cc1	3.7	-7	2.4	-4	2	-0.6	-9	-7.2
Cc1ccc(Nc2nc(/N=C/NO)n[nH]2)cc1C	0.4	1	-0.2	-4	-4	-6.3	-3	x

Source: PubChem BioAssay (several laboratories)

Compounds were not picked by outcome. Share with any hit: about 4.3%.
